Ba CapD inh = inhibitors of Bacillus anthracis CapD enzyme; purified CapD enzyme, fluorescence intensity read-out; stronger effect = lower value; some hits fall short of the stated cut; z-score (concentration not given with the values); 140,000 tested, 0.23% active;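 active = z-score under -4 in either of two replicates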;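 note: stock transfer was 100 nL into about 40 µL; score is relative to mean and spread of the plate; one replicate is shown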
AID504770 = growth inhibitors of E. coli YBA685 in a screen for V. cholerae RctB (chromosome II replication) inhibitors; AID 504770; 130,000 tested, 0.27% active; E. coli YBA685 rctB-dependent plasmid, OD600 growth, 3 h; stronger effect = lower value; z-score (no concentration beside the values);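 active = z-score under -2 on both plates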;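 note: wells of about 30 µL received 100 nL stock; score is relative to mean and SD of the test wells; the first replicate is given; strong numbers were not always called active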
* marks the source's active call; other numbers are inactive results; · = not tested or not shown. This is a subset; the hit share may differ from the screen's.

SMILES | Ba CapD inh | AID504770
COc1ccc(OCC(O)CNS(=O)(=O)c2ccc(NC(C)=O)cc2)cc1 (centres undefined) | 0.91 | 0.5
COc1cc2nc(CNCCCN3CCCC3=O)[nH]c(=O)c2cc1OC | · | 0.05
CN(C(=O)c1ccc(Cl)cc1)c1ccc(Cl)cc1C(=O)c1ccccc1 | 0.18 | -0.85
CCOc1cc(C=C2C(=O)N(C)C(=O)N(C)C2=O)ccc1OCCOc1ccccc1OC | -0.21 | ·
O=C(Oc1ccc2cc(-c3nc4ccccc4s3)c(=O)oc2c1)c1ccco1 | 32 | -0.6
Cc1c(C(=O)N2CCC(C(N)=O)(N3CCCCC3)CC2)sc2ncn(C)c(=O)c12 | -0.87 | ·
COc1ccc(OC)c(NC(=O)/C=C/c2ccc(S(=O)(=O)N3CCOCC3)cc2)c1 | · | -1
NS(=O)(=O)c1ccc(CCNC(=O)CSc2nc3ccccc3c(=O)n2CCC(=O)NC2CCCCC2)cc1 | 0.79 | ·
COc1cccc(C2C(N3C(=O)c4ccccc4C3=O)C(=O)N2c2cccc(C)c2)c1 (centres undefined) | 0.025 | ·
CC(=O)Oc1ccc(C2OC(=O)c3ccccc3N2C(C)=O)cc1 (centres undefined) | 0.49 | -0.2
CC(C)(C)CC(C)(C)NC(=O)Nc1ccc(F)cc1 | 0.07 | -0.7
O=C(Oc1ccc2ccccc2c1)C1c2ccccc2Oc2ccccc21 | 1.1 | 0.95
O=C(c1cnn(C(=S)NCCN2CCOCC2)c1)c1ccccc1O | · | -0.3
CC1CC(C)CN(C(=O)CCc2ccccc2)C1 (centres undefined) | 0.57 | 0.6
COC(=O)C1=CN(Cc2ccc(OC)cc2)C=C(C(=O)OC)C1c1ccc(OC)c(OC)c1OC | 35 | ·
O=C(OC1CCCC1)c1cccnc1Cl | 13 | 1.9
CSc1ccccc1NC(=O)CSc1nc2ccc(C)cc2[nH]1 | 5.6 | -0.55
COc1ccc(NC(=O)c2nn(C)c3c2COc2ccccc2-3)cc1 | 4.8 | 0.5
COC(=O)C1=C(C)N(c2ccc(F)cc2)/C(=C/c2ccco2)C1=O | 3.4 | 0.55
CN(CC1COc2ccccc2O1)C(=O)/C=C/c1ccc(S(=O)(=O)NCc2ccco2)cc1 (centres undefined) | · | -0.9
CCOC(=O)C1=C(N2CCOCC2)CC(c2ccccc2)(C(F)(F)F)NC1=O (centres undefined) | · | -0.15
COC(=O)c1csc(C(=O)OC)c1C | -0.19 | -1.1
O=c1cc(CN2CCc3ccccc3C2)occ1OCc1ccc(F)cc1 | · | -0.5
c1ccc(CSc2ccc(-c3cccs3)nn2)cc1 | -3.4 | 0.65
O=S(=O)(NCC1COC2(CCCCC2)O1)c1ccc(Cl)s1 (centres undefined) | · | -0.25
COCCN1C(=O)c2ccccc2C(C(=O)NCc2ccccc2OC)C1c1ccc(F)cc1 (centres undefined) | 0.29 | ·
CCCCCCCCCCCCCCCCCCOCC(O)CO (centres undefined) | -0.11 | ·
COc1ccc(OC)c(CN2CCCCC2COC(=O)N2CCN(c3sc(S(N)(=O)=O)cc3[N+](=O)[O-])CC2)c1 (centres undefined) | -1.5 | ·
CC1(C(=O)O)NC(c2ccccc2O)C2C(=O)N(c3ccccc3)C(=O)C21 (centres undefined) | -0.14 | ·
COc1ccc(-c2cc(-c3ccccc3)[nH]c(=S)c2C#N)cc1 | 0.81 | 1.2
CCN(CC)C(=O)N1CCN(c2ccc(Nc3ccnc4cc5ccccc5cc34)cc2)CC1 | -0.31 | ·
O=C(c1ccc(F)cc1)N1c2ccccc2CCc2ccccc21 | -0.68 | ·
Cc1cc(=O)[nH]c(SCC(=O)Nc2ccccc2C#N)c1C#N | · | -1
CCOC(=O)C1=C(O)/C(=C/c2ccc(N(C)C)cc2)SC1=Nc1ccc(F)cc1 | -0.15 | ·
OC(c1n[nH]c(=S)n1-c1ccccc1)C(O)c1n[nH]c(=S)n1-c1ccccc1 (centres undefined) | 0.14 | -0.55
CCSc1nc2c(=O)[nH]cnc2n1C1OC(CO)C(O)C1O (centres undefined) | -0.21 | ·
O=C(Nc1ccc2nsnc2c1)c1ccccc1N1CCOCC1 | -0.7 | -0.2
COC(=O)CN1C(=O)Nc2ccc(C)cc2C1c1ccccc1 (centres undefined) | 0.36 | 0.1
COCCOC(=O)C1=C(C)NC2=C(C(=O)CC(c3ccc(OC)c(OC)c3)C2)C1c1ccc(OC)cc1OC (centres undefined) | 5.8 | ·
NC(=O)c1ccc(NC(=O)COC(=O)CCN2C(=O)c3ccccc3C2=O)cc1 | · | -0.35
Cc1ccc(-n2nc3c(c2NC(=O)c2cc(Br)ccc2Cl)CS(=O)(=O)C3)cc1 | -0.28 | ·
CC(C)(C)c1ccc(O)c(CN2CCN(c3ccccc3)CC2)c1 | -0.085 | -0.65
CN(C(=O)COc1ccccc1)C1(C)CCS(=O)(=O)C1 (centres undefined) | -0.45 | -0.85
CCN(CC)S(=O)(=O)c1ccc2oc(Nc3ccccc3)nc2c1 | · | 0.1
Cc1ccc2nc(NC(=O)C(C)(C)C)sc2c1 | 0.76 | -0.35
COc1ccc(NC(=O)CNC(N)=O)cc1NS(=O)(=O)c1ccc(F)cc1 | · | 0.6
CCOC(=O)N1CCN(C(=O)CCS(=O)(=O)c2ccc(Br)s2)CC1 | 1.1 | -0.75
COc1cc(C2C(C(=O)Nc3nc4ccccc4s3)=C(C)NC3=C2C(=O)CC(C)(C)C3)cc(OC)c1OC (centres undefined) | 30 | ·
COc1cc(-c2[nH]nc3c2C(c2cccc(O)c2)C(C#N)=C(N)O3)cc(OC)c1OC (centres undefined) | -0.06 | ·
CC(C)(C)c1cc(C(=O)/C=C2/NC(=O)CS2)no1 | -0.43 | 0.1
COC(=O)c1cc(S(=O)(=O)/C=C/c2ccccc2)c(Cl)cc1Cl | 5.3 | -0.45
COc1ccc(-c2ccc(C=C(C#N)C#N)s2)cc1 | 2.7 | ·
CCCN(Cc1nnc(-c2ccccc2Cl)o1)C(=O)c1ccc2[nH]c(C)c(C)c2c1 | · | -0.15
CN1c2ccccc2C(O)=C(C(=S)Nc2ccc(F)c(Cl)c2)S1(=O)=O | -2.2 | ·
Cc1cc(C)nc(NS(=O)(=O)c2ccc(NC(=O)c3ccc(Br)cc3F)cc2)n1 | -0.09 | ·
OC(CN1C2=NCCN2c2ccccc21)c1ccccc1 (centres undefined) | -0.47 | ·
CCOC(=O)C1=C(C)N=c2s/c(=C/c3cc([N+](=O)[O-])ccc3N3CCN(C)CC3)c(=O)n2C1c1ccccc1 (centres undefined) | -0.42 | ·
Cc1ccc(C(C#N)c2ccc3c(C(F)(F)F)cc(C(F)(F)F)nc3n2)cc1 (centres undefined) | -0.14 | ·
O=C(Nc1ccc(Cl)cc1Cl)C1CC(=O)N(C2CCCCC2)C1 (centres undefined) | 0.16 | -0.6
CC(=O)Nc1ccc(NC(=O)CCC2CCCC2)cc1 | 0.6 | -0.25
(next part)
SMILES | Ba CapD inh | AID504770
COc1ccc(CCC(=O)N2C(=O)c3cccc(N)c3C2=O)cc1OC | · | 0.45
O=C(NCc1ccncc1)/C(=C/c1ccc(Cl)cc1)c1ccc(F)cc1 | 0.66 | 0.5
CC(=O)N1CC2C(C3CCN2CC3)N(C(C)=O)c2ccccc21 (centres undefined) | -0.3 | -1
CN(C)S(=O)(=O)c1ccc(C(=O)NCc2ccccn2)cc1 | · | 2.6
CCNc1nc(NC(C)C)nc(NC(N)NOC)n1 (centres undefined) | · | 0
CC1CCC(C(=O)Nc2cc3c(cc2N2CCCCC2)n(C)c(=O)c(=O)n3C)CC1 (centres undefined) | -0.93 | 0.3
COc1ccc(N(C(=O)c2ccncc2)S(=O)(=O)c2cccs2)cc1 | -8.5* | 1.1
Cc1cccc(NNC(=O)C2CCCCC2)c1 | · | -0.65
Cc1cc(C(=O)COc2ncnc3c2cnn3-c2ccccc2)c(C)n1C1CC1 | · | 1.5
BrC12CC3CC(CC(C3)C1)C2 | -0.54 | ·
COc1cccc(OC)c1C(=O)N1CCN(Cc2ccccc2F)CC1 | -0.07 | 0.05
COCCNC(=O)c1cc2cc(S(C)(=O)=O)ccc2n1C | 0.22 | ·
CCN(CC)C(=O)CSc1nc2ccccc2c(=O)n1CC | · | 0
COc1cc(OC)c2c(O)cc(=O)[nH]c2c1 | 1.9 | -1.1
N#CC1(C#N)C2CCCCC23OC(=N)C1(C#N)C(c1cccnc1)O3 (centres undefined) | 23 | -0.65
Cc1ccc(NC(=O)C2=CSCCO2)cc1 | -0.21 | -0.95
COC(=O)c1ccc2[nH]c3c(c2c1)CCCC3 | 3.3 | -0.35
Cc1ccc2[nH]cc(NC(=O)N3CCCCC3)c(=O)c2c1 | · | 0
Cc1sc2nc(SCCC(=O)NC3CCCCC3)[nH]c(=O)c2c1C | -0.045 | 0.05
C=CCOC(=O)C1=C(C)NC(SCC(=O)Nc2ccc(Br)cc2)=C(C#N)C1c1cccs1 (centres undefined) | 1.5 | ·
O=C(c1cnc2ccccc2n1)N1CCC(O)(c2ccc(Cl)cc2)CC1 | -0.16 | -0.65
Cc1cc(C(=O)CSc2n[nH]c(N)n2)c(C)n1-c1cccc(S(=O)(=O)N2CCOCC2)c1 | · | -0.7
Cc1ccc(NC(=O)CCn2c(=O)[nH]c3ccsc3c2=O)cc1 | -1.7 | 2.6
COc1ccc(/C=C2\C(=O)N(C)c3ccccc32)cc1O | -3.4 | -0.5
CC1(C)Cc2c(ccc3ccccc23)C2=C(C#N)C(=O)C(=O)N21 | -1.1 | ·
O=C(/C=C/c1cc2c(cc1Br)OCO2)Oc1ccc(F)cc1 | 1.8 | ·
O=C(Nc1cccc2ccccc12)N1CCC(n2c(=O)[nH]c3ccccc32)CC1 | 5.8 | 1.1
CN(C)Cc1cccc(C(=O)O)c1 | · | -0.25
CCSc1nnc(NC(=O)CCc2nc3ccccc3s2)s1 | · | 1.6
Cc1ccccc1-c1nc(CN2CCC(C(=O)NCc3ccco3)CC2)c(C)o1 | -0.67 | -0.5
COc1cccc(N(C(=O)/C=C/c2ccco2)c2nc3ccccc3s2)c1 | · | 0.45
O=C1OC2(CCCCC2)OC(=O)C1=Cc1ccc2c(c1)OCO2 | 0.38 | -0.2
O=C1c2ccccc2NC(c2cccc([N+](=O)[O-])c2)N1c1ccc(Br)cc1 (centres undefined) | 0.18 | ·
CN(C)C(=O)COc1ccc2c3c(c(=O)oc2c1)CCC3 | 9.9 | -3.2
COc1cc(NC(=O)COc2cc(C)c(Cl)c(C)c2)ccc1NC(=O)c1cc2ccccc2o1 | 63 | -0.15
CN(C1CCN(Cc2ccc(C(F)(F)F)cc2)C1)S(=O)(=O)c1ccc(Cl)cc1Cl (centres undefined) | 0.97 | ·
Cc1cc(NS(=O)(=O)c2ccc(NC(=O)c3ccc(F)cc3)cc2)no1 | -0.43 | ·
COCCN1C(=O)c2ccccc2C(C(=O)NC2CCCC2)C1c1c[nH]c2ccccc12 (centres undefined) | 0.12 | 0.5
N#Cc1c(Cl)cccc1Oc1ccc(S(=O)(=O)N2CCN(CCc3ccccc3)CC2)cc1 | 0.35 | ·
CC(C)C(=O)NC(C)C(c1cccs1)N1CCOCC1 (centres undefined) | -0.39 | -0.25
CCOC(=O)c1ccc(S(=O)(=O)Nc2nn3cnnc3s2)cc1 | · | -0.65
N#Cc1cnn(C(=O)c2ccc(NS(=O)(=O)c3cccs3)cc2)c1N | · | -1.4
CCC(=O)Nc1ccc(-c2cn3cccnc3n2)cc1 | 104 | 1.1
Cc1cc(C)c(OCC(=O)Nc2ccc(S(=O)(=O)Nc3nc(C)cc(C)n3)cc2)c(C)c1 | -0.12 | ·
O=C(Cc1cccs1)Nc1nccs1 | · | 0.35
O=C(O)C1CC=CCC1C(=O)N1CCCC1 (centres undefined) | · | 1.6
O=C(Nc1ccc(C(=O)N2CCOCC2)cc1)c1ccc2c(c1)OCO2 | -0.65 | 1.8
CCCCC1=NN(C(=O)C2CC2)C(O)(C(F)(F)F)C1 (centres undefined) | 80 | 0.25
O=c1oc2c3c(ccc2c2ccccc12)OCN(Cc1ccccc1)C3 | 1.1 | -0.1
O=C(NCc1ccccc1)c1cc(-c2ccccc2)c(N2CCOCC2)s1 | 1.1 | -0.4
CCOC(=O)C1=NNC2C(=O)N(c3ccc(C)cc3)C(=O)C12 (centres undefined) | -0.15 | ·
